Screening data deposited in PubChem BioAssay by Southern Research Institute.
Mtb H37Rv = Confirmatory growth inhibition assay against Mycobacterium tuberculosis H37Rv, potency (AID 1949); most inactive calls were filed without a number and no value below 0 was filed; inhibition, % at 10 µg/mL; hits with a dose series show IC50 in µg/mL; actives 1.6% (n = 100,000);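 active means confirmed in a dose series; inconclusive means about 50% or more but not retested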;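 further: bacteria grown 7 days with compound before Alamar blue readout; 0% = untreated bacteria and 100% = reference antibiotic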
Active calls of the source: *; i = inactive; ? = inconclusive. An excerpt; the hit share may differ from the screen's.

Compound | Mtb H37Rv
COc1ccc(C)cc1NC(=O)NC1CCN(Cc2ccccc2)CC1 | i
CCC(C(=O)n1cc(C)cn1)c1ccccc1 (stereo not drawn) | i
CCOc1ccccc1N(CC(=O)Nc1ccccc1C(=O)N1CCCC1)S(=O)(=O)c1ccc(Cl)cc1 | i
CCn1c(-c2ccc(Br)cc2)nc2ccccc21 | 3%
COC(=O)c1cccc(NC(=O)CN(c2ccc(OC)c(Cl)c2)S(C)(=O)=O)c1C | i
COC(=O)c1ccccc1NC(=O)Nc1cc(OC)c(Cl)cc1OC | 1%
CNC(=S)NCc1ccc(OC)cc1 | i
S=C(Nc1cccc2ccccc12)N1CCN(C/C=C/c2ccccc2)CC1 | 5%
CSc1ccc(C2NC(=S)NC3=C2CCc2ccccc23)cc1 (stereo not drawn) | i
CCCCC(=O)NC(c1ccccc1)c1cc([N+](=O)[O-])c2cccnc2c1O (stereo not drawn) | i

3 of the compounds above, as labelled records:
smiles: COC(=O)c1ccccc1NC(=O)Nc1cc(OC)c(Cl)cc1OC
  Mtb H37Rv: 1%
smiles: CCCCC(=O)NC(c1ccccc1)c1cc([N+](=O)[O-])c2cccnc2c1O (stereo not drawn)
  Mtb H37Rv: i
smiles: COc1ccc(C)cc1NC(=O)NC1CCN(Cc2ccccc2)CC1
  Mtb H37Rv: i

Following part:
Compound | Mtb H37Rv
COc1ccccc1C1(CC(=O)N2CCCCC2)CCOC(C(C)C)C1 (stereo not drawn) | 1%
Cc1c(Cl)cccc1NC(=O)CCN1C(=O)c2ccccc2S1(=O)=O | i
O=C(Cn1c(=O)oc2ccccc21)Nc1ccc2c3c(cccc13)CC2 | i
O=C(O)CCCNC(=O)c1cncc(O)c1 | i
Cc1cc(OCCn2ccnc2)ccc1Cl | 2.8µg/mL*
CC(=O)Nc1cccc(NS(=O)(=O)Cc2ccc(Cl)cc2)c1 | i
S=C(c1ccc(N2CCOCC2)cc1)N1CCOCC1 | i
CC(C)(C)C(=O)Nc1nnc(CC(=O)NCc2ccccc2)s1 | i
Cc1ccc(NC(=O)COc2ccc(Cl)cc2Br)c(C)c1 | i
CCOc1ccc(OCC)c(S(=O)(=O)N(C)C2CCCCC2)c1 | 8%
CCC(=O)Nc1ccc(Cl)c(NC(=S)NC(=O)Cc2ccc(Cl)cc2)c1 | i
Cc1cc(C)n2nc(C(=O)Nc3ccn(Cc4ccccc4C)n3)cc2n1 | i
S=C(Nc1cccc2ccccc12)N1CCN(c2ccccn2)CC1 | 2%
O=S(=O)(NCCSc1nnnn1-c1ccccc1)c1ccccc1 | i
O=S(=O)(c1cccs1)N1CCN(c2ccc(Cl)cc2)CC1 | 2%
Cc1ccc(NC(=O)COc2c(C)ccc(C)c2C)cc1Cl | 3%
Cc1ccc(C2/C(=C(\O)c3ccc(F)cc3)C(=O)C(=O)N2CCCCCC(=O)O)cc1 (stereo not drawn) | i
COc1ccccc1N1CCN(C(=O)CSc2ccc(C)cc2)CC1 | 1%
O=C(c1ccccc1)c1ccccc1C(=O)N1CCCCC1 | 3%
COc1ccc(OC(C)C(=O)N2CCN(c3ccccn3)CC2)cc1 (stereo not drawn) | i
O=C(Cc1ccc2c(c1)CCCC2)Nc1ccccc1Cl | 4%
O=C(Nc1ncc(Cc2ccc(Br)cc2)s1)c1ccccc1 | i
Cc1cccc(C(=S)N2CCN(c3cccc(Cl)c3)CC2)c1 | 4%
Cc1cccc(-c2nnc(SCC(=O)Nc3c(C)cc(C)cc3C)n2C)c1 | i
O=C(Nc1ccc(Cl)c(C(F)(F)F)c1)C1CCN(S(=O)(=O)c2ccc(F)cc2)CC1 | i
CCOc1ccc(S(=O)(=O)N2CCN=C2c2ccccc2)c2ccccc12 | i
Cc1nc2ccc(NC(=O)N3CCCCC3)cc2nc1C | i
O=C(Nc1ccccc1C(F)(F)F)C1CC(=O)N(c2ccccc2F)C1 (stereo not drawn) | 5%
CCn1c(SCC(=O)Nc2ccccc2F)nnc1-c1ccc(Cl)cc1Cl | i
COc1cccc(NC(=O)Nc2cccnc2)c1 | i
COc1cc(C(C)=O)ccc1OCCCCN1C(=O)NC(C)(C)C1=O | i
O=C(Nc1ccccc1)N1CC=C(c2ccccc2)CC1 | i
COc1ccc(NC(=O)CN(Cc2cccc(Cl)c2)S(=O)(=O)c2ccc(C)cc2)c(OC)c1 | i
CCOc1cc(C2NC(=S)NC(C)=C2C(=O)OC)cc(Br)c1OCC(C)C (stereo not drawn) | 2%
O=C(CC1C(=O)N(Cc2ccccc2)C(=S)N1Cc1cccs1)Nc1ccc(F)cc1 (stereo not drawn) | i
CCc1cc(C(=O)OC)c(NC(=S)N2CCN(c3cccc(C(F)(F)F)c3)CC2)s1 | 2%
COc1ccccc1OCCSc1nc2sc3c(c2c(=O)n1-c1ccccc1)CCCC3 | 4%
Nc1c(C(=O)NC2CCCC2)sc2nc(-c3ccc(F)cc3)ccc12 | i
O=C(Nc1ccc(Oc2cccnc2)cc1)c1ccccc1F | i
COC(=O)C1=C(C)Nc2c(c(=O)n(C)c(=O)n2C)C1c1ccc(Cl)cc1 (stereo not drawn) | 2%
CC1(C)Cc2c(sc3nc(Cc4ccccc4)[nH]c(=O)c23)CO1 | i
Cc1ccc(CCC(=O)C(C#N)c2nc3ccccc3s2)o1 (stereo not drawn) | 2%
O=C(CSc1nnc(-c2ccccc2)n1-c1ccc(Cl)cc1)c1ccccc1 | i
CCCN1CCN(C(=S)Nc2cc(C)ccc2OC)CC1 | i
COCCNS(=O)(=O)c1ccc(F)c(OC)c1 | 0%
O=S(=O)(c1ccc(F)cc1)N1CCN(Cc2ccsc2)CC1 | i
Cc1c(OC(=O)c2ccco2)ccc2c(=O)c(-c3nc4ccccc4s3)c(C(C)C)oc12 | 1%
Cc1ccc(-n2c(-c3ccccc3Cl)n[nH]c2=S)cc1C | i
Cc1ccc(CSc2nc(C)cc(C)c2C#N)cc1 | i
O=C(Nc1ccccc1)N1CCN(c2nnc(-c3ccccc3)c3ccccc23)CC1 | i

More results.
Compound | Mtb H37Rv
Cc1ccc([N+](=O)[O-])cc1NC(=O)CC12CC3CC(CC(C3)C1)C2 | 6%
COc1ccc(CC(=O)Nc2cc(OC)c(OC)cc2C(=O)O)cc1 | i
COc1ccc(NC2=C(Cl)C(=O)N(c3ccc(C)cc3C)C2=O)cc1 | 44%
Cc1ccc2ncc(NC(=O)c3ccc(F)cc3)c(=O)n2c1 | i
Cc1ccc(CN(CC(=O)N2CCCCCC2)S(=O)(=O)c2ccc(Cl)cc2)cc1 | i
CC(=O)C1=C(C)N(Cc2ccccc2)C(=O)C1CC(=O)O (stereo not drawn) | i
FC(F)(F)c1cc(-c2ccccc2)nc2onc(OCCN3CCOCC3)c12 | 1%
O=C(N1CCCCCC1)N1CCN(C(=O)N2CCOCC2)CC1 | i
CC(=O)Nc1ccc(NC(=O)CSc2nnc(-c3ccncc3)n2-c2ccc(Cl)cc2)cc1 | i
C=CCn1c(CNC(=O)c2ccc(OC)cc2)nnc1SCC(=O)Nc1c(F)cc(F)cc1Br | i
Cc1cc(C)c(-c2cc(C(F)(F)F)nc(-c3ccccc3)n2)c(=O)[nH]1 | 2%
COc1ccc(C(=O)Oc2ccc(C(C)(C)C)cc2)cc1 | i
O=C(CSc1nnnn1-c1ccc(F)cc1)NC1CCCCC1 | i
COc1ccc(Cl)cc1NC(=S)Nc1ccc(Br)cn1 | i
O=C(Nc1ccccc1Sc1ccccc1)c1ccco1 | 6%
CCOc1cccc(C(=O)Nc2cc(-c3nc4ccccc4o3)ccc2OC)c1 | i
Cc1cccc(/C(N)=N/OC(=O)c2ccc(Cl)cc2)c1 | i
c1ccc(C(CCNCc2ccco2)c2ccco2)cc1 (stereo not drawn) | i
COc1cc(C2C(C(=O)OC3CCCC3)=C(C)NC3=C2C(=O)CC(C)(C)C3)cc(OC)c1O (stereo not drawn) | 5%
CC1(C)CC(=O)CC(C)(C)N1OC(=O)c1ccccn1 | i
CCc1ccccc1NC(=O)CSc1c(C)n[nH]c1C | i
Cn1c(=O)c([N+](=O)[O-])c(N2CCN(C3CCCC3)CC2)c2ccccc21 | i
Cn1c(=O)c2c(nc(SCC(=O)O)n2Cc2ccc(F)cc2)n(C)c1=O | i
O=C(COc1ccc(Br)cc1)N1CCN(c2ccccc2F)CC1 | 3%
CCn1c(SCC(=O)Nc2cc3oc4ccccc4c3cc2OC)nnc1-c1cccnc1 | ?
CC(C)Oc1ccc(C(=O)Nc2cccc(C(F)(F)F)c2)cc1 | i
COc1ccc(S(=O)(=O)N2CCc3ccccc32)cc1C(=O)O | i
CC1CCc2nc(NC(=O)CN3CCN(C(=O)c4ccco4)CC3)sc2C1 (stereo not drawn) | 1%
NS(=O)(=O)c1ccc(NC(=O)CSc2nc3ccccc3c(=O)n2-c2ccc(Br)cc2)cc1 | i
CC(NC(=O)c1ccc(Cl)c(Cl)c1)C1CC2CCC1C2 (stereo not drawn) | i
O=C(Nc1cccc(Br)c1)C1C2C3CCC(C3)C12 (stereo not drawn) | 41%
O=C(NCc1ccccc1)c1cc([N+](=O)[O-])[nH]n1 | i
COc1cccc(C(=O)Nc2c(C)cc(C)cc2[N+](=O)[O-])c1 | i
COc1ccc(N2CCN(C(=O)c3ccc(OC)cc3OC)CC2)cc1 | 2%
CC(C)c1ccccc1OCC(=O)Oc1ccc(-c2ccccc2)cc1 | 11%
CCOC(=O)/C(C#N)=C/c1ccc(-c2cc([N+](=O)[O-])ccc2C)o1 | 43%
Clc1ccc2c(N3CCNCC3)ccnc2c1 | i
CC(=O)Oc1ccc2nc(-c3ccc(Br)o3)oc(=O)c2c1 | i
CCOC(=O)c1sc(N)c(C(=O)OCC)c1C | 1%
COc1ccc([N+](=O)[O-])cc1NC(=O)CN(c1cc(C)ccc1C)S(C)(=O)=O | i
COC(=O)c1c(NC(=O)CCCN2C(=O)c3ccccc3C2=O)sc2c1CCC2 | i
COC(=O)N1CCN(Cc2ccc(Cl)c(Cl)c2)CC1 | 13%
COc1cc(C)nc(NC(=O)COc2ccc(Cl)cc2C)n1 | i
Cc1cc(C(=O)c2ccccc2)ccc1OC(=O)COc1ccccc1[N+](=O)[O-] | i
CCn1c(Cc2ccccc2)nnc1SCc1nc2ccccc2c(=O)[nH]1 | i
COC(=O)Cc1ccc(NC(=S)N2CCC(C(N)=O)CC2)cc1 | i
Ic1cccc(Nc2ncnc3ccccc23)c1 | i
CCc1ccccc1NC(=O)CN(Cc1ccc(F)cc1)S(=O)(=O)c1ccc(Cl)cc1 | 4%
CCOC(=O)Cn1c(=O)n(-c2ccc(Cl)cc2)c(=O)c2c3c(sc21)COC(C)(C)C3 | 1%
CCc1ccc(NC(=O)C(C)N(c2ccccc2)S(C)(=O)=O)cc1 (stereo not drawn) | 3%

Further results.
Compound | Mtb H37Rv
COc1ccc(S(=O)(=O)Nc2ccccc2C(F)(F)F)cc1 | i
CCOc1ccccc1N1CCN(C(=O)c2ccccc2Cl)CC1 | 6%
C=CCc1ccccc1OCC(O)CN1CCN(c2ccc(OC)cc2)CC1 (stereo not drawn) | 10%
N#CCCN(C(=O)Nc1ccc(Cl)cc1)c1ccccc1 | i
CCC(=O)Nc1ccc(C(=O)n2nnc3ccccc32)cc1 | i
COc1c(C)cccc1C(=O)NC12CC3CC(CC(C3)C1)C2 | 1%
COc1ccc(N2CCN(C(=O)C3CCCN(S(=O)(=O)c4ccc(C)cc4)C3)CC2)cc1 (stereo not drawn) | 11%
CCOc1ccccc1N(CC(=O)Nc1ccc(S(=O)(=O)N2CCCC2)cc1)S(C)(=O)=O | i
COc1ccc(-c2nc3cc(NC(=O)c4ccc(C)cc4Cl)ccc3o2)cc1 | 34%
CC(C)c1ccc(N(CC(=O)Nc2ccc(F)c(Cl)c2)S(C)(=O)=O)cc1 | i

Some of the entries above in a different format:
COc1ccc(N2CCN(C(=O)C3CCCN(S(=O)(=O)c4ccc(C)cc4)C3)CC2)cc1 (stereo not drawn)
  Mtb H37Rv: 11%
CCOc1ccccc1N(CC(=O)Nc1ccc(S(=O)(=O)N2CCCC2)cc1)S(C)(=O)=O
  Mtb H37Rv: i
COc1ccc(-c2nc3cc(NC(=O)c4ccc(C)cc4Cl)ccc3o2)cc1
  Mtb H37Rv: 34%
CC(C)c1ccc(N(CC(=O)Nc2ccc(F)c(Cl)c2)S(C)(=O)=O)cc1
  Mtb H37Rv: i

(further entries)
Compound | Mtb H37Rv
Cc1ccc(SC(C)C(=O)Nc2ccccc2Br)cc1 (stereo not drawn) | 1%
CSc1cccc(NC(=O)CN(C)S(=O)(=O)c2cc(Cl)ccc2Cl)c1 | i
COc1ccc(NC(=O)C(=O)NC(C)C)cc1 | i
Cc1ccc(S(=O)(=O)N(C)CC(=O)Nc2ccc(C)c(C)c2)cc1 | i
CCCCOc1ccc(NC(=O)C(=O)NC)cc1 | i
COc1ccc(Cl)cc1NC(=O)c1ccc(C(=O)Nc2cc(Cl)ccc2OC)nc1 | i
CN(C)CCCNC(=O)C(=O)Nc1ccccc1F | i
CCN1CCN(C(=O)CN(C)S(=O)(=O)c2ccc(F)cc2)CC1 | i
COc1ccc2c(=O)c(-c3cnn(-c4ccccc4)c3)c(C)oc2c1 | 1%
COC(=O)N1CCN(c2ccc(C)cc2)C(C)C1 (stereo not drawn) | i
CCc1ccc(NC(=O)CN(c2ccccc2F)S(=O)(=O)c2ccc(C)cc2)cc1 | i
Cc1ccc(S(=O)(=O)N2CCCC2C(=O)Nn2cnnc2)cc1 (stereo not drawn) | i
O=c1oc2cc(OCc3ccc(-c4cnc(-c5ccccc5)o4)cc3)ccc2c2ccccc12 | i
COC(=O)c1c(C)oc2ccc(OCc3ccc(F)cc3Cl)cc12 | 32%
Cc1ccc(C(C)C)c(OCC(=O)Nc2ccccc2F)c1 | i
COCCNC(=O)c1ccccc1NC(=O)COc1ccc(Cl)cc1 | i
